Screening results deposited in PubChem by National Center for Advancing Translational Sciences (NCATS).
VDR inhibitor – blocks the human vitamin D receptor | P11473 | hit rate 0.93% among 400,000 | Potency, µM, without a hit: max response, negative = inhibition, actives largely listed as inhibitors | VDR-SRC2-3 peptide fluorescence polarization, 2 h; active means well fitted inhibition curve with a large enough effect; inconclusive means small, poorly fitted or top-dose-only effect, or another doubt; inactive means no such curve, though single readings can be large or run the other way; further: series mostly up to about 120 µM
Target sequence (P11473 whole entry, looked up): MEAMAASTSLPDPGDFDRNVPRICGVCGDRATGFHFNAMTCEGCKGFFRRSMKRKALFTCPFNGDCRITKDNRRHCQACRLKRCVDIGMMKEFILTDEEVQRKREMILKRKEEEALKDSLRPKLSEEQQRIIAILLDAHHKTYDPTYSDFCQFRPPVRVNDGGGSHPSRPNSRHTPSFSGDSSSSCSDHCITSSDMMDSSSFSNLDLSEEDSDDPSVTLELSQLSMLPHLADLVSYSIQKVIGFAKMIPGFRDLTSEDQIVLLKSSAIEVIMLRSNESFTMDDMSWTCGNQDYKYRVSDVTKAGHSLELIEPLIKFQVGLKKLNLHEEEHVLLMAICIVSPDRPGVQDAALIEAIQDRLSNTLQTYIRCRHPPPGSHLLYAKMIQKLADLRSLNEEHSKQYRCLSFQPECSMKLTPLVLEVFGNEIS
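Fluorescence polarization assay of small-molecule disruption of VDR binding to coregulator peptide SRC2-3. Compounds and controls pin-transferred, then read after 2 h incubation at ambient room temperature.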
* marks the source's active call; other numbers are inactive results; ? = inconclusive; & = joins results of further samples; [ ] = dose if it differs, or a comment. On the % scale 0 is the no-effect control and ±100 the full control effect; potency means the concentration at half of the fitted maximal effect.

VDR inhibitor | SMILES
38.6%[activator] | CCOC(=O)CCC(=O)Nc1ccc([N+](=O)[O-])cc1C
4.8% | COC(=O)c1sc(S(=O)(=O)N2CCN(CCO)CC2)c(C(=O)OC)c1C
11.5%&12.7% | Cc1cc2[nH]c(=O)c(=O)[nH]c2cc1S(=O)(=O)N1CCN(c2ccccc2)CC1
-2.9% | CC(CC(=O)Nc1ccccc1)NCCCN1CCCC1=O (stereo not given)
3.1% | Cc1ccc(C2(C)NC(=O)N(CC(=O)NC(=O)NCCC(C)C)C2=O)cc1 (stereo not given)
-3.2% | Cc1cc(C)cc(NC(=O)C2CCCN2C(=O)NC2CCCCC2)c1 (stereo not given)
-13.6% | C/C(=N\Nc1cccc(C(=O)O)c1)c1cc2ccccc2o1
12.8% | Cn1c(SCc2ccc([N+](=O)[O-])cc2)nnc1-c1ccncc1
-16.9% | Cc1onc(-c2c(Cl)cccc2Cl)c1C(=O)OCC(=O)c1ccccc1
17.5% | COc1ccc(NC(=O)CSc2nnc(C3CC3)n2N)cc1
11.1% | COC(=O)COc1ccc2c(=O)c(-c3ccccc3)coc2c1
-20.9% | NS(=O)(=O)c1cccc(NC(=O)CC23CC4CC(C2)CC(CC(=O)Nc2cccc(S(N)(=O)=O)c2)(C4)C3)c1
2.8% | O=Cc1ccc(OCC(=O)NC(=O)NC2CCCCC2)cc1
9.0% | CC(C)NC(=O)N(C)C[C@H]1Oc2ccc(NC(=O)NC3CCCCC3)cc2C(=O)N([C@H](C)CO)C[C@@H]1C
6.6% | COC(=O)Cn1cc(/C=N/NC(=O)COc2cccc3cccnc23)c2ccccc21
23.1% | Cc1cc(NC(=O)Cc2cccs2)no1
-22.6% | O=C1CCC(=O)N1CCOP1(=O)COc2ccccc2OC1
-10.0% | O=C(C1CCN(S(=O)(=O)c2ccccc2)CC1)N(CCc1ccccc1)Cc1ccco1
-11.9% | CCc1ccc(N=Nc2ccc(O)c3[nH]cnc23)cc1
-7.0% | O=C(Nc1nccs1)c1ccccc1[N+](=O)[O-]
-6.1% | CCOc1ccc(OCC)c(NC(=O)C2CCCN(S(=O)(=O)c3cnc[nH]3)C2)c1 (stereo not given)
12.7% | COCCn1nnnc1C(c1ccccn1)N1CCN(c2cc(C)ccc2C)CC1 (stereo not given)
9.5% | CC(=O)Nc1ccc(NC(=O)CN(c2ccc(C(C)C)cc2)S(=O)(=O)c2ccccc2)cc1
16.9% | Cc1cc(C(=O)NCc2ccco2)no1
-25.0% | CCCCN1CC[C@H]2C=CC[C@@H](C(=O)NCc3ccc(OC)cc3)[C@H]2C1=O

Four records picked at random from the list so far, as already listed:
VDR inhibitor | SMILES
9.5% | CC(=O)Nc1ccc(NC(=O)CN(c2ccc(C(C)C)cc2)S(=O)(=O)c2ccccc2)cc1
2.8% | O=Cc1ccc(OCC(=O)NC(=O)NC2CCCCC2)cc1
3.1% | Cc1ccc(C2(C)NC(=O)N(CC(=O)NC(=O)NCCC(C)C)C2=O)cc1 (stereo not given)
11.1% | COC(=O)COc1ccc2c(=O)c(-c3ccccc3)coc2c1

Later entries
VDR inhibitor | SMILES
-1.3% | CC(C)c1ccc(N2C(=O)CC(Sc3nc4ccccc4o3)C2=O)cc1 (stereo not given)
6.9% | CC(Oc1ccc2c3c(c(=O)oc2c1)CCC3)C(=O)NCCCn1ccnc1 (stereo not given)
4.8% | CCOC(=O)C1CCCN(C(=O)Cn2nc(CC)n3c(cc4occc43)c2=O)C1 (stereo not given)
-2.5% | O=c1cc(-c2ccccc2Cl)oc2c(NS(=O)(=O)c3ccccc3OC(F)(F)F)ccc(O)c12
-20.7% | Cc1ccc(OCC(=O)Nc2sc3c(c2C#N)CCC3)cc1
22.0% | CCOc1ccc(S(=O)(=O)N2CCC(c3ccncc3)CC2)cc1
-4.3% | COc1cccc(CNC(=O)Cc2ccc(NC(=O)N3CCCCc4ccccc43)cc2)c1OC
6.7% | Cc1cc(C)n(CCCC(=O)O)n1
-2.7% | Cc1ccc(Nc2c(C(C)C)c(C)c(C#N)c3nc4ccccc4n23)cc1
-10.6% | Brc1ccc(OCCOCCOc2cccc3cccnc23)cc1
4.5% | Nc1ccc(C#Cc2c(-c3ccsc3)oc3ccc(N4CCOCC4)cc23)cc1
-4.2% | O=C(NC1CCCCC1)c1cccc(N2C(=O)CCC2=O)c1
5.3% | C=CCN(C(=O)CNC(=O)c1ccco1)C(C(=O)NC1CCCCC1)c1ccccc1 (stereo not given)
5.8% | Cc1ccc(N2C(=O)N3[C@H](c4cccc(C)c4)[C@@H]4C(=O)N(Cc5ccccc5)C(=O)[C@@H]4[C@]3(C)C2=O)cc1
-5.6% | COc1ccc(NC(=S)N2CCN(CCN=CC3=C(O)CC(c4ccccc4)CC3=O)CC2)cc1 (stereo not given)
-23.6% | Cn1nnc(NC(=O)c2cccc([N+](=O)[O-])c2)n1
-6.0% | COc1ccc2cc(Br)ccc2c1CC(=O)N1CCCC1
-12.5% | CCN1CCN(c2ccc(NC(=O)COc3ccc([N+](=O)[O-])cc3)cc2)CC1
-7.1% | CC(C)(C)c1nnc(NC(=O)C2CCN(c3ncccn3)CC2)s1
-1.6% | CCc1sc(NC(=O)COC)nc1-c1ccccc1
-7.7% | C=CCn1c(SCC(=O)NC23CC4CC(CC(C4)C2)C3)nc2cc(C(=O)O)ccc2c1=O
-1.3% | CC(C)Cn1c(SCC(=O)NC(=O)Nc2ccc3c(c2)OCCO3)nc2ccccc2c1=O
-8.7% | O=C(Cc1c(Cl)cccc1Cl)Nc1ccncc1Cl
-8.6% | COCCNC(=O)c1ccc(NS(=O)(=O)c2ccc3[nH]c(=O)[nH]c3c2)cc1
-7.8% | Cc1nn(CCCC(=O)NCc2ccccc2Cl)c(=O)c2nccn12
-11.3% | COC(=O)[C@]1(Cc2ccccc2)N[C@H](CN(C)S(=O)(=O)c2ccc(OC)cc2)[C@@H]2C(=O)N(C)C(=O)[C@@H]21
-4.5% | Nc1cccc(CCc2nc3cc4ccccc4cc3[nH]2)c1
5.3% | CCc1nnc(SCC(=O)Nc2nccs2)n1CC
-10.4% | CC(=O)Cc1nsc(Nc2ccc(F)cc2)n1
19.0% | CCNC(=O)NC(=O)CSc1cccc(C(F)(F)F)c1
50.1µM* | CC(=O)n1cc(N(C(=O)CCl)c2ccc(Cl)cc2)c2ccccc21
-15.0% | OC1(c2ccc(Cl)cc2)CN(c2ccccc2)C2=[N+]1CCS2 (stereo not given)
11.9% | CCOC(=O)c1[nH]c2ccccc2c1CCCN1C(=O)c2ccccc2C1=O
13.8% | CN(C)CCNC(=O)c1ccc(Cn2c(SCc3ccc(F)cc3)nc3cccnc32)cc1
-6.6% | Cc1ccc(-c2noc(C3CCCN(C(=O)c4ccccc4Br)C3)n2)cc1 (stereo not given)
6.8% | Cc1nn(CCO)c(C)c1Oc1ccccc1O
-6.6% | COC(=O)c1ccc(/C=C/c2nc3ccccc3c(=O)[nH]2)cc1
2.6% | Cc1ccc(C)c(C(=O)NC(C)c2ccc(-n3ccnc3)cc2)c1 (stereo not given)
-19.4% | Cc1ccc(NC(=O)Cn2cc(S(=O)(=O)c3ccc(C)cc3)c(=O)c3cc4c(cc32)OCO4)cc1
-0.5% | COc1ccc(-n2nc(C(=O)NCC(=O)NCc3ccccc3OC)c3ccccc3c2=O)c(OC)c1
-4.9% | Cc1oc(C2CC2)cc1C(=O)O
3.2% | COc1cc(-c2cc(C(=O)NCc3ccc(S(N)(=O)=O)cc3)c3ccccc3n2)cc(OC)c1OC
-2.7% | CN1/C(=C\C(=O)c2ccccc2Cl)c2ccccc2CC1(C)C
-6.6% | COc1ccc(NC(=O)CSc2nnc(-c3ccccc3C)n2C)cc1
-4.4% | Cc1ccc(C2N(c3ccccc3)C(=S)N3CCCN23)cc1 (stereo not given)
7.7% | CC1(C)Cc2c(cnn2-c2ccc(F)cc2)C(NC(=O)CN2CCCCC2=O)C1 (stereo not given)
-16.5% | CCOC(=O)c1oc2ccc(CNCCO)c(Cl)c2c1C
0.3% | Cc1cc(C)n(C(=O)c2c([N+](=O)[O-])cnn2C)n1
8.0% | COc1ccc(-c2nc3ccccc3o2)cc1NC(=O)COc1ccc(C)c(C)c1
-9.7% | CCOc1ccc(NC(=S)NC(C)c2cccs2)cc1 (stereo not given)

Taken from the listing (5 entries):
VDR inhibitor | SMILES
-11.3% | COC(=O)[C@]1(Cc2ccccc2)N[C@H](CN(C)S(=O)(=O)c2ccc(OC)cc2)[C@@H]2C(=O)N(C)C(=O)[C@@H]21
-4.5% | Nc1cccc(CCc2nc3cc4ccccc4cc3[nH]2)c1
5.3% | CCc1nnc(SCC(=O)Nc2nccs2)n1CC
-10.4% | CC(=O)Cc1nsc(Nc2ccc(F)cc2)n1
19.0% | CCNC(=O)NC(=O)CSc1cccc(C(F)(F)F)c1

(more compounds)
VDR inhibitor | SMILES
-8.6% | CCOc1ccc(CCNC(=O)CN2C(=O)COc3ccc(S(=O)(=O)N4CCOCC4)cc32)cc1
0.0% | C[C@H](NC(=O)c1ccc(Cl)cc1)C(=O)NCCc1ccc(S(N)(=O)=O)cc1
2.7% | COc1ccc(CNC(=O)N[C@H](C(=O)O)C(C)C)cc1OC
-17.9% | O=C(COC(=O)c1ccc([N+](=O)[O-])s1)Nc1ncc(C(F)(F)F)cc1Cl
? | Cc1c(C(=O)N2CCN(C3CCS(=O)(=O)C3)CC2)oc2c(F)cccc12 (stereo not given)
11.8% | CCn1c(C)c(C)c2cc(C(=O)NCc3ccc(OC)cc3OC)ccc21
-15.3% | Cc1ccc(C)n1-c1ccc(C(=O)Nc2ccccc2)cc1
-6.1% | Cc1cccn2c(=O)c3cc(C(=O)O)n(C)c3nc12
-23.3% | CCN(c1ccccc1)S(=O)(=O)c1ccc(Oc2ccccc2)c(N)c1
-11.7% | Cc1ccc(N2C(=O)c3ccccc3C2=O)cc1C
-22.2% | CCN(CC)S(=O)(=O)c1ccc(C2CNC(=O)C2)cc1 (stereo not given)
-11.4% | O=C(NCC1COc2ccccc2O1)c1ccc(-n2cncn2)c([N+](=O)[O-])c1 (stereo not given)
6.2% | CCOc1ccccc1C(=O)Nc1cc2c(cc1C)n(C)c(=O)c(=O)n2C
-24.6% | Fc1ccc(N/N=C/c2ccc(N3CCOCC3)cc2)c(F)c1
-4.1% | CC(NC(=O)CCCc1c[nH]c2ccccc12)c1ccc(F)cc1 (stereo not given)
-16.3% | CCOc1ccc(/C=N/NC(=O)CSc2ccccn2)cc1O
0.7% | COc1ccc(CSc2nnc(C)n2N)cc1
1.7% | CC1=C(C)CC(C(=O)NNC(=O)c2ccccc2O)C(C(=O)O)C1 (stereo not given)
-1.6% | COC(=O)C1C(C(C)C)N(c2ccccc2)OC1(C)O (stereo not given)
-20.7% | CCS(=O)(=O)N1CCC(C(=O)Nc2cccc(C(C)=O)c2)CC1
5.0% | C/[N+]([O-])=C\C1C(=O)CCCC1=O
-2.9% | Cc1ccccc1CNc1ncnc2cc(Cl)ccc12
-9.2% | Cn1c(NN)nc2c1c(=O)n(Cc1ccccc1)c(=O)n2C
11.9% | CC(=O)Nc1ccc(-c2csc(NC(=O)Nc3ccccc3)n2)cc1
-3.6% | Cc1cccc(NC2(C(F)(F)F)N=C3SCCN3C2=O)n1 (stereo not given)
-7.2% | Cc1ncc(NS(=O)(=O)c2ccc(N)cc2)nc1C
10.4% | O=C(NCc1ccco1)c1ccc(COc2ccccc2[N+](=O)[O-])o1
5.3% | COc1cc2c(cc1OC)CN(C(=O)CCN1C(=O)C3CCCCC3C1=O)CC2 (stereo not given)
-33.3% | COc1ccc(C[C@H]2CN3C(=NC[C@@H]3Cc3ccccc3)N2CCNC(=O)c2ccc(C)c(Br)c2)cc1
6.9% | O=C1C(C23CC4CC(CC(C4)C2)C3)C(=O)N(c2ccccc2)N1c1ccccc1
-1.1% | COc1ccc(NC(=O)C2CCCN(c3nc(C)cc(C)n3)C2)cc1 (stereo not given)
-21.6% | CN(C1CCS(=O)(=O)C1)S(=O)(=O)c1ccccc1[N+](=O)[O-] (stereo not given)
35.8%[activator] | CCCCCCn1c(N2CCN(c3ccccc3)CC2)nc2c1c(=O)[nH]c(=O)n2C
-2.0% | CCC(C)NS(=O)(=O)c1ccc(OCC(=O)NCc2ccccn2)cc1 (stereo not given)
-10.3% | Cc1ccccn1
-16.0%&12.3% | Cc1cccc(N2CCN(C(=O)C3CCN(c4ncnc5c4nc4n5CCCCC4)CC3)CC2)c1C
-5.3% | Cc1ccc(-c2c(C(=O)N3CCN(c4ccc(F)cc4)CC3)oc(=O)c3ccccc23)cc1
-12.2% | COc1ccc(CNS(=O)(=O)c2cc(-c3cc(C)no3)ccc2C(C)C)cc1
-19.1% | CC1(C)Cc2c(sc(/N=C/N3CCCC3)c2C#N)C(C)(C)N1
2.1% | Cc1ccc(-n2nc(C)c(/C=N/n3c(C)n[nH]c3=S)c2Cl)cc1
-16.0% | CC(C)(C)NC(=O)c1ccc2c(c1)N(CC(=O)N1CCCC1)C(=O)C(C)(C)O2
-6.4% | COCCNC(=O)c1ccc(Cn2c(SCC(=O)NC(C)C)nc3ccccc3c2=O)cc1
-8.6% | CCCNC(=O)C1CC(c2ccccc2[N+](=O)[O-])=NO1 (stereo not given)
0.0% | O=C(COc1ccc2ccccc2c1)NNC(=O)Cc1ccccc1
-3.3% | CCOc1ccc(NC(=O)c2c(NC(=O)Cc3ccccc3)sc3c2CCCC3)cc1
2.4% | Cc1ccc(N(C(C)C(=O)O)S(=O)(=O)c2c(C)[nH]c(=O)[nH]c2=O)cc1 (stereo not given)
9.6% | S=C(Nc1cccc2ccccc12)NC1CCCCC1
-5.1% | COCC(C)Nc1ccc(S(=O)(=O)N2CCCC2)cc1[N+](=O)[O-] (stereo not given)
3.7% | CCCCc1ccc(C(=O)NC(C(=O)O)C(C)C)cc1 (stereo not given)
7.2% | Cc1cc2cc(CN(CCCN3CCOCC3)C(=O)NC3CCCCC3)c(=O)[nH]c2cc1C
4.4% | O=C(COc1ccccc1[N+](=O)[O-])N1CCC(c2nc3ccccc3o2)CC1
-4.6% | O=C(CSc1ccc2ccccc2n1)N/N=C/c1ccc(O)cc1

Some of the compounds tested. The share of hits here may be higher or lower than overall.
